Anaer choline gr = growth inhibitors of anaerobic choline-fed gram-negatives, minimal medium, absorbance; 55,000 tested, 0.2% active; Gram-negative bacterium anaerobic choline minimal medium; hits give low values; many inactives read as strong as hits in the columns shown; calls only;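 active = growth z-score on choline under -2 at 7 or 20 h with little or no fall on glycerol, limits in tiers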;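 note: stock transfer was 300 nL into about 50 µL; the organism is E. coli; final concentration not given here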
Anaer choline gr early = also measured in Anaer choline gr; calls as there; z-score; measured here: choline growth z-score, timepoint 1;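 score of optical density at 7 h as mean of two plates; lower means less growth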
Starred values were filed as active, the others as inactive; i = inactive; & = joins results of further samples. The list is partial; the hit share may differ from the screen's.

SMILES	Anaer choline gr	Anaer choline gr early
CC1CCN(S(=O)(=O)c2cc(C(=O)Nc3ccc(F)c(Cl)c3)n(C)c2)CC1	i	0.07
CC(C)CSc1nc2c(cnn2-c2ccc(F)cc2)c(=O)[nH]1	i	0.48
CC(C)c1cc(C2CCCN2Cc2ccc(Br)s2)no1 (configuration not stated)	i	0.15
CCC(C)NC(=O)Cn1ncc2c(c1=O)N(CC)C(=O)CS2 (configuration not stated)	i	-0.98
O=C(NCCCN1CCOCC1)C1CCN(c2ccc(Cl)cc2)C1=O (configuration not stated)	i	0.29
O=C(COc1ccc(Cl)cc1)Oc1cccc(-n2cnnn2)c1	i	-0.9
Cc1[nH]c(C(=O)N2CCC(CC(=O)N3CCCC3)CC2)c(C)c1C(=O)OC(C)C	i	-0.27
Cc1cc(C)cc(S(=O)(=O)N2CSC[C@@H]2C(=O)NCc2csc(C)n2)c1	i	0.5
C=CCN(CC=C)c1cc(-c2ccccc2)nc2nc(-c3cccnc3)nn12	i	0.62
CCn1c(=O)c(N2CCC(C(=O)NCc3ccccc3OC)CC2)nc2cccnc21	i	-1.2
Cc1nn(C)c(C)c1CCN(C)S(=O)(=O)c1cccs1	i	-0.38
CC(C)c1ccc(CNc2nc3nc(CNc4ccc(Br)cc4)cc(=O)n3[nH]2)cc1	i	0.94
COC(=O)c1ccccc1NC(=O)CSc1nc2ccccc2nc1Cc1cccc(OC)c1	i	2.6
O=C(Cc1ccccc1)n1cnc2ccccc21	i	-0.18
Cc1cccc(C)c1Nc1c(-c2ccccc2Cl)nc2cnccn12	i	-0.13
O=C(c1cc2c(s1)CCCC2)N1CCc2[nH]cnc2C12CCCCC2	i	0.41
Cn1nc(-c2nc(C3CC3)no2)c2c1CCN(C(=O)c1ccsc1)C2	i	-1.3
O=C(NCc1ccc(F)cc1)c1n[nH]nc1Nc1cccc(Cl)c1	i	0.53
COc1ccc(C2CC(c3c(O)n(C)c(=S)n(C)c3=O)=NN2C(C)=O)cc1 (configuration not stated)	i	-1.3
CCNc1cc(C)nc(Nc2ccc(NC(=O)C(C)C)cc2)n1	i	0.78
COC(=O)Cn1c(C2CC(=O)N(Cc3ccccc3)C2)nc2ccccc21 (configuration not stated)	i	1.2
Cc1ccc(NC(=O)CCc2nnc3ccc(N4CCC(Cc5ccccc5)CC4)nn23)cc1	i	-0.29
Cc1cc2oc(C(=O)NCC(c3cccs3)N3CCCC3)c(C)c2cc1C (configuration not stated)	i	1
CCc1nn(-c2ccccc2)c2nc(-c3ccccc3)nc(SCC(=O)Nc3ccc(OC)c(OC)c3)c12	i	-1.7
c1cc2c(cc1-c1ccc(SCc3nc(-c4ccc5c(c4)OCO5)no3)nn1)OCO2	i	0.04
O=S(=O)(c1ccc(F)cc1F)N1CCN(c2ncnc3c2nnn3-c2cccc(F)c2)CC1	i	-0.01
CC(C)NC(=O)N1CCCC(c2cccc(C(=O)N3CCN(C)CC3)c2)C1 (configuration not stated)	i	-0.34
Cc1cccc(CSc2nc3nc[nH]c3c(=O)[nH]2)c1	i	0.6
CN1CCN(C(=O)C2(c3ccccc3F)CC2)CC1	i	-2
O=C(Cn1ccn2nc(-c3ccc(Cl)cc3)cc2c1=O)NCCCC1=CCCCC1	i	-0.05
O=C(Cn1c2ncccc2c(=O)n1-c1ccccc1)NC1CCCC1	i	-1.6
CCCN(CCC)S(=O)(=O)c1cc(-c2nc(C)c(C)s2)sc1C	i	0.4
O=C(NC1CCCC1)C1CCN(c2ccc3cc(S(=O)(=O)N4CCCCC4)ccc3n2)CC1	i	0.05
CC(C)c1ccc2oc3nc(N)c(C(=O)O)cc3c(=O)c2c1	i	0.14&0.58
CCN(CC)C(=O)CSc1nnc(CN(c2ccc(F)cc2)S(C)(=O)=O)n1C	i	-0.22
Cc1cc(C(=O)NCc2ccc(Cl)cc2)c2c(=O)n(C)c(=O)n(C)c2n1	i	1.1
Cc1cc(-c2csc(S(=O)(=O)NCCCN3CCN(Cc4ccccc4)CC3)c2)on1	i	-0.7
COc1ccccc1N1CCN(C(=O)CN(c2cccc(Cl)c2C)S(C)(=O)=O)CC1	i	0.34
CCc1ccc(-c2ccc(=O)n(CCc3nc(-c4ccc5c(c4)OCO5)no3)n2)cc1	i	1.4
COc1ccc(-c2csc3ncnc(NC4CC4)c23)cc1	i	-0.17
Cn1nnc2cc(C(=O)N3CCc4ccccc4C3)ccc21	i	-0.95
O=C1CCC(=O)N1c1nc2n(n1)C(c1ccccc1Cl)C=C(c1ccccc1)N2 (configuration not stated)	i	0.59
CC1(C)CC(=O)c2cc(-c3nc(-c4ccc(Br)cc4)cs3)c(=O)n(-c3ccccc3)c2C1	i	0.74
CC(C)CCNC(=O)N1CCCC1c1cc(C(C)C)no1 (configuration not stated)	i	-0.04
O=C(NCCC1=CCCCC1)C1CCN(c2ncnc3c2sc2ncccc23)CC1	i	0.35
CCCCNC(=O)c1cccc(Nc2ccnc(-c3cccc(C)c3)n2)c1	i	1.1
Cc1[nH]c(C)c(S(=O)(=O)N2CCN(C)CC2)c1-c1nnc(C2CCC2)o1	i	0.65
CCc1nc(-c2csc(S(=O)(=O)NCc3ccc(Br)cc3)c2)no1	i	0.05
C=C(C)CN1CCN(c2cc(C)nc3cc(-c4ccc(OC)c(OC)c4)nn23)CC1	i	-0.06
COc1ccc(-c2nc(CN3CCN(C(=O)c4cccc(OC)c4)CC3)c(C)o2)cc1	i	-0.49
Cc1ccc(-c2ccc(CCC(=O)O)n2-c2cccc(C(=O)O)c2)cc1	i	0.27
CC(=O)Nc1ccc(-c2noc(C3CCCN(C(=O)c4cccc(Cl)c4)C3)n2)cc1 (configuration not stated)	i	-1
COc1cc(C)c(S(=O)(=O)N2CCc3cc4ccc(C)cc4nc32)cc1C	i	-2
CCn1cc(S(=O)(=O)N2CCC(CN3CCCC(C)C3)CC2)cn1 (configuration not stated)	i	-0.65
Cc1cc(C2CCCN2C(=O)c2c(-c3ccccc3Cl)noc2C)no1 (configuration not stated)	i	-0.1
Cc1cccc(N2CC(C(=O)Nc3cccc(-c4nc(-c5ccccc5)no4)c3)CC2=O)c1 (configuration not stated)	i	0.82
Cc1cc(C)cc(NC(=O)Cn2nc3c4c5c(sc4ncn3c2=O)CCCC5)c1	i	-0.43
Cc1nn(-c2cc(N3CCCC3)ncn2)c(C)c1CCC(=O)NCc1cccc(Cl)c1	i	1.3
Cc1cccc(-c2noc(-c3cc(-c4ccccc4)n[nH]3)n2)c1	i	0.2
Cc1nc(C2CCCN(Cc3ccco3)C2)n[nH]1 (configuration not stated)	i	0.01
Next records:
SMILES	Anaer choline gr	Anaer choline gr early
O=C(Cc1csc2nc(-c3ccccc3)cn12)N1CCN(c2ccc(F)cc2)CC1	i	-0.26
CCOc1c(NCc2ccccc2Cl)c(=O)c1=O	i	-1.4
Cc1cc(C)cc(NC(=O)CCc2c(C)nc3nc(CN)nn3c2C)c1	i	0.18
O=C(NC1CCCC1)C1CCN(c2cncnc2N2CCCCC2)CC1	i	0.52
Nc1ccc(S(N)(=O)=O)cc1	i	0.04
CCCN(c1nc2nc(C)c(Cl)c(C)n2n1)S(=O)(=O)c1ccc(Cl)cc1	i	-0.11
Cc1cccc(C(=O)Nc2ccc3nc(N4CCC(N5CCCCC5)CC4)cc(C(=O)O)c3c2)c1	i	-0.72
CCc1nn(-c2ccccc2)c2nc(-c3ccccc3)nc(SCC(=O)Nc3ccccc3OC)c12	i	-1
O=C(NCCC1=CCCCC1)c1ccc(-c2ccc(F)cc2)nc1	i	0.38
COc1cccc2c(=O)c(NC(=O)NCC3CCCO3)c[nH]c12 (configuration not stated)	i	-1.9
O=C(Nc1ccc2sc(NC(=O)C3CCCCC3)nc2c1)c1n[nH]c2c1CCCC2	i	0.29
O=S(=O)(c1cccc(F)c1)N1CCN(c2ncnc3c2nnn3-c2ccc(F)cc2)CC1	i	-0.83
CS(=O)(=O)N(Cc1nnc(SCC(N)=O)n1-c1ccccc1)c1ccc(F)cc1	i	-0.58
NCCCC(O)(P(=O)(O)O)P(=O)(O)O	i	0.75&-0.38
CCOc1ccc(NC(=O)Cc2ccc(NC3=NC4CS(=O)(=O)CC4S3)cc2)cc1 (configuration not stated)	i	1.1
Cc1nn(C(C)C(=O)Nc2ccccc2Cl)c(=O)c2c(-n3cccc3)n(-c3ccccc3)nc12 (configuration not stated)	i	-1.9
CCc1ccc(CNC(=O)CN2C(=O)C(C)=C(c3ccc(CC)cc3)S2(=O)=O)cc1	i	0.6
CCn1c(C)nnc1SCc1nc(-c2ccccc2)oc1C	i	-1.8
Clc1ccc(CSc2nc3ccccc3n3nnnc23)cc1	i	1.7
CCC1Oc2ccc(S(=O)(=O)N3CCN(C(=O)c4cc5ccccc5[nH]4)CC3)cc2NC1=O (configuration not stated)	i	-0.58
Cc1ccc(C(=O)N2CCC(c3ccncc3)CC2)cc1	i	-0.08
O=C(NCCCN1CCOCC1)c1cnc2sc3c(n2c1=O)CCC3	i	-0.51
O=S(=O)(c1cccc2cccnc12)N1CCN(c2nc3cccnc3s2)CC1	i	0.48
Cc1nn(Cc2ccc(F)cc2Cl)c(=O)c2noc(C)c12	i	-1.2
CCOC(=O)c1c(C)[nH]c(C)c1S(=O)(=O)N1CCCC(C(=O)Nc2cccnc2)C1 (configuration not stated)	i	-1.7
C=CCn1ccc2c(OCC(=O)Nc3ccc4c(c3)OCO4)cccc2c1=O	i	0.15
Cc1cc2c(cc1C(=O)Nc1ccccc1)OCCCO2	i	-0.53
Cn1cc(/C=C2/C(=O)Nc3cccnc32)c2ccccc21	i	0.7
Brc1ccc(-c2cc3c(SCc4ccccc4)nccn3n2)cc1	i	1.9
O=C(NC1CCN(Cc2ccccc2)CC1)c1cccc(-c2cc(N3CCCC3)ncn2)c1	i	-1.6

Some of these compounds in order of their number in Anaer choline gr early, largest number first.
SMILES | Anaer choline gr early
Clc1ccc(CSc2nc3ccccc3n3nnnc23)cc1 | 1.7
C=CCn1ccc2c(OCC(=O)Nc3ccc4c(c3)OCO4)cccc2c1=O | 0.15
CCOC(=O)c1c(C)[nH]c(C)c1S(=O)(=O)N1CCCC(C(=O)Nc2cccnc2)C1 (configuration not stated) | -1.7

(more compounds)
SMILES	Anaer choline gr	Anaer choline gr early
CCOC(=O)c1cnn2c(-c3ccc(OCC)cc3)ccnc12	i	-0.18
COC(=O)CC1=CC(SCC(=O)Nc2cc(F)ccc2F)=Nc2ccccc2N1	i	0.54
CCOc1ccc(S(=O)(=O)c2cn(CC(=O)Nc3ccc(C)cc3)c3ccc(F)cc3c2=O)cc1	i	-0.28
C=CCn1c(=O)c2ccc(C(=O)NCc3ccc4c(c3)OCO4)cc2n(CC(=O)Nc2ccc(F)c(Cl)c2)c1=O	i	-0.63
CCOC(=O)c1c(C)[nH]c(CCC(=O)NCCc2c[nH]c3ccccc23)c1C	i	0.06
Cc1nnc(-c2c(C)[nH]c(C)c2S(=O)(=O)NCCC2=CCCCC2)o1	i	0.18
COc1ccc(C2C3=C(CC(c4ccc(O)cc4)CC3=O)Nc3onc(C)c32)c(OC)c1 (configuration not stated)	i	-0.51
Cc1ccc(Cn2ccc(NC(=O)c3cc(C)no3)n2)cc1	i	-0.18
CCCCN1CC(c2nc3ccccc3n2CC(=O)N(C)c2ccccc2)CC1=O (configuration not stated)	i	-0.69
Cc1cc(=O)[nH]c(Nc2ccc(Br)cc2)n1	i	-0.82
COc1cccc(CSc2nc3c(-c4ccccc4)c[nH]c3c(=O)[nH]2)c1	i	-0.28
CCCCC(CC)CCC(CC(C)C)OS(=O)(=O)O (configuration not stated)	i	-0.27
CC(C)n1c(=O)sc2cc(S(=O)(=O)N3CCN(C(=O)c4ccc(Cl)nc4)CC3)ccc21	i	-1.9
CN(CCNC(=O)c1ccc(CN2C(=O)CCn3nccc32)cc1)Cc1ccccc1	i	-0.16
CC(C)c1cc(C2CCCN2C(=O)C2CCCC2)on1 (configuration not stated)	i	-0.17
COc1ccc(NS(=O)(=O)c2ccc3c(c2)c(=O)n(CCC(=O)N2CCCC2)c(=O)n3C)cc1	i	-0.14
O=C(CSc1ncnc2nc(N3CCCC3)sc12)NCCC1=CCCCC1	i	0.99
Cn1c(-c2nnc(SCC(=O)NC3CCCCC3)o2)cc2ccccc21	i	-1.2
O=C(Cn1nc2n(Cc3ccc(F)cc3)c(=O)c3ccccc3n2c1=O)c1ccc(F)cc1	i	0.24
Cc1ccc(-c2ccc(N3CCC(N4CCCCC4)CC3)nn2)cc1S(=O)(=O)N1CCOCC1	i	-0.4
O=C(c1ccc2c(c1)OCO2)N1CCN(c2ncnc3c2nnn3-c2ccccc2)CC1	i	0.03
Cc1nn2c(NC3CCCC3)cc(C(C)(C)C)nc2c1-c1ccc(F)cc1	i	2.1
c1ccc(OCCn2c(C3CCCO3)nc3ccccc32)cc1 (configuration not stated)	i	0.01
Cn1c(=O)c2nc(S(=O)(=O)CCC(=O)Nc3ccc(F)cc3)n(C)c2n(C)c1=O	i	0.33

Filtered by structure, the compounds so far containing an aryl thioether with sulfur outside any ring.
SMILES	Anaer choline gr	Anaer choline gr early
CC(C)CSc1nc2c(cnn2-c2ccc(F)cc2)c(=O)[nH]1	i	0.48
COC(=O)c1ccccc1NC(=O)CSc1nc2ccccc2nc1Cc1cccc(OC)c1	i	2.6
CCc1nn(-c2ccccc2)c2nc(-c3ccccc3)nc(SCC(=O)Nc3ccc(OC)c(OC)c3)c12	i	-1.7
c1cc2c(cc1-c1ccc(SCc3nc(-c4ccc5c(c4)OCO5)no3)nn1)OCO2	i	0.04
Cc1cccc(CSc2nc3nc[nH]c3c(=O)[nH]2)c1	i	0.6
CCN(CC)C(=O)CSc1nnc(CN(c2ccc(F)cc2)S(C)(=O)=O)n1C	i	-0.22
CCc1nn(-c2ccccc2)c2nc(-c3ccccc3)nc(SCC(=O)Nc3ccccc3OC)c12	i	-1
CS(=O)(=O)N(Cc1nnc(SCC(N)=O)n1-c1ccccc1)c1ccc(F)cc1	i	-0.58
CCn1c(C)nnc1SCc1nc(-c2ccccc2)oc1C	i	-1.8
Clc1ccc(CSc2nc3ccccc3n3nnnc23)cc1	i	1.7
Brc1ccc(-c2cc3c(SCc4ccccc4)nccn3n2)cc1	i	1.9
COc1cccc(CSc2nc3c(-c4ccccc4)c[nH]c3c(=O)[nH]2)c1	i	-0.28
O=C(CSc1ncnc2nc(N3CCCC3)sc12)NCCC1=CCCCC1	i	0.99
Cn1c(-c2nnc(SCC(=O)NC3CCCCC3)o2)cc2ccccc21	i	-1.2
